# HSD17B inh – inhibitors of human HSD17B10 dehydrogenase; Q99714; recombinant HSD17B10, NADH fluorescence kinetic; many of its hits are not listed in these tables; Potency, µM (highest dose often 57.1 µM), without a hit: top-dose activity change, negative = inhibition, most hits filed as inhibitors; 75,000 tested, 7.6% active; active = well fitted inhibition curve with a large enough effect; inconclusive = small, poorly fitted or top-dose-only effect; inactive = no such curve, though single readings can be large or run the other way;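 also: the protocol describes HADH2 (HSD17B10) and not the HSD17B4 of the title; nearly all actives have a fitted effect of over 70% in size; most hits overshoot -100% by far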
#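 His-tagged E. coli-expressed HADH2 at 20 nM in 100 mM Tris-HCl pH 9.0 with 0.01 % Tween-20, preincubated 15 min with compound at room temperature. Reaction with 1 mM NAD+ and 90 uM beta-hydroxybutyryl coenzyme A; NADH fluorescence (360/450 nm) read kinetically over 4 min, last minus first point.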
# Starred values were filed as active, the others as inactive; ? = inconclusive; [ ] = another dose, or the depositor's remark. % is scaled to controls: 0 for no effect and ±100 for the full control effect; potency is read from the fitted curve at half-maximal effect. A portion of the library; rates above refer to the full screens.
SMILES	HSD17B inh
CCOC(=O)Cc1csc(NC(=O)COc2ccc(N(C)S(=O)(=O)c3cccs3)cc2)n1	-1.2%
CCOC(=O)CCc1nc2ccccc2[nH]c1=O	31.6µM*
O=C(Oc1ccc(Cl)c2cccnc12)N1CCOCC1	25.1µM*
CCCCc1c(O)n2c(nc3ccccc32)[nH]c1=O	2.0%
COCc1nnc(NS(=O)(=O)c2ccc(Br)cc2)s1	-3.7%
COc1ccc(CNc2ccnc(-c3cccnc3)n2)c(OC)c1	9.9%
Cc1onc(-c2ccccc2)c1C(=O)N1CCCN(C(=O)c2c(-c3ccccc3)noc2C)CC1	5.1%
CCCn1c(O)c(CN2CCCCC2)c(C)c(C#N)c1=O	?
Cc1cc(C)nc(NCC(O)CNc2ccccc2Cl)n1 (stereo not drawn)	1.3%
Cc1ccc(N2C(N)=C(C#N)C(c3cccnc3)C3=C2CCCC3=O)cc1 (stereo not drawn)	-8.7%
O=C(O)c1ccc(CN(c2ccccn2)S(=O)(=O)c2ccccc2)cc1	?
Cc1cc(NC(=O)c2cc(C)on2)no1	3.4%
Cc1cc(C(F)(F)F)nc(SCC(=O)Nc2ccccc2)n1	0.7%
CCCOc1ccc(C2c3c(oc4cc(C)c(C)cc4c3=O)C(=O)N2CCCN2CCOCC2)cc1 (stereo not drawn)	-7.4%
O=C(CN1CCN(S(=O)(=O)c2cc(Cl)ccc2Cl)CC1)Nc1ccc2c(c1)OCCO2	12.2%
COC(=O)C1C(=O)CC(C)(O)C(C(=O)OC)C1c1ccc2c(c1)OCO2 (stereo not drawn)	4.4%
CCN(CC)C(=O)COc1ccc(Br)cc1Cl	4.3%
Cc1nc2ccccn2c1P(=Nc1ccccc1)(N(C)C)N(C)C	?
COc1ccc(-c2cc(C(F)(F)F)n3nc(C(=O)Nc4cc(C)on4)cc3n2)cc1OC	13.0%
CN(C(=O)c1ccncc1)c1nnc(-c2cccnc2)s1	82.9%[activator]
Nc1nonc1-n1nnc(C(=O)O)c1-c1cccs1	1.8%
O=C(NC1CCCCCCC1)C1CCC(CNc2c(N3CCCC3)c(=O)c2=O)CC1 (stereo not drawn)	-0.3%
Cc1nnc(NC(=O)CCSc2ccccc2)s1	1.4%
Cc1ccc(S(=O)(=O)NCC(c2cccnc2)N(C)C)cc1 (stereo not drawn)	9.0%
O=C(C1CCN(S(=O)(=O)N2CCOCC2)CC1)N1CCN(Cc2ccc3c(c2)OCO3)CC1	-0.5%
Cc1ccc(S(=O)(=O)NCC2CCC(C(=O)NCCCN3CCOCC3)CC2)cc1 (stereo not drawn)	11.3%
O=C(NCCCCN1CCCC1)c1ccc(-n2c(=O)c(=O)[nH]c3ccccc32)cc1	8.4%
O=C(O)c1cc(Cl)cc(Cl)c1	0.8%
Cc1cnc(CNc2ncncc2-c2ccccc2C)cn1	-3.6%
O=C(c1cccc(F)c1)N1CCN(Cc2ccco2)CC1	3.4%
O=c1cc(CNC2CCCCC2)c2ccccc2[nH]1	-19.6%
Cc1cc(NC(=O)CSCCc2ccncc2)no1	1.3%
CC1CCc2c(sc(NC(=O)c3ccc(Cn4cc(Br)cn4)o3)c2C(N)=O)C1 (stereo not drawn)	133.4%[activator]
COc1ccccc1CNC(=O)Cn1cc2c(n1)CCCC2	3.9%
CCCN(CCC)CCCNC(=O)CC(C(=O)N1CCc2ccccc21)n1ccnc1 (stereo not drawn)	-3.9%
c1ccc2c(Nc3ccncc3)nc(-c3ccoc3)nc2c1	20µM*
Cc1cc(C)n2nc(C(=O)OCC(=O)c3cc(C)n(C)c3C)nc2n1	-18.4%
COCCOC(=O)C1=C(C)N=C2SCCC(=O)N2C1c1ccc(OC(=O)c2ccco2)cc1 (stereo not drawn)	-5.0%
COc1cc(NC(=O)Nc2cccc(Cl)c2)c(OC)cc1NC(=O)CN1CCCCC1	8.7%
CCCn1c(C)cc(C(=O)CSc2nnc3n(CCC)c(=O)c4ccccc4n23)c1C	0.2%
CC(=O)N1CCC2(CC1)CCN(c1cccc(-c3ccccc3)c1)CC2	?
CC1=C(C(=O)N(C)CCC#N)C2(CCCCC2)OC1=O	6.5%
Nc1ncnc2nc(SCCN3CCCCC3)[nH]c12	4.5%
CCc1ccccc1N1CCN(S(=O)(=O)c2cc(OC)ccc2OC)CC1	-21.8%
C=CCOc1ccc(C2C(C(=O)c3ccco3)=C(O)C(=O)N2CCCN(CC)CC)cc1 (stereo not drawn)	-7.4%
CCOc1ccc(NC(=O)c2ccc3c(c2)N(Cc2ccc(F)cc2)C(=O)CS3=O)cc1 (stereo not drawn)	?
CCn1c(SCC(=O)N2CCOCC2)nc2c(c1=O)SC(C)C2 (stereo not drawn)	-3.2%
Fc1c(F)c(C(F)(F)F)c(F)c(F)c1N1CCN(c2ccc3nnc(C(F)(F)F)n3n2)CC1	?
O=C(c1cc2n(n1)C(C(F)(F)F)CC(c1ccc(F)cc1)N2)N1CCCC1 (stereo not drawn)	5.1%
COC(=O)c1cc(OC)c(OC)c(OC)c1NC(=O)c1ccc(S(=O)(=O)N(C)C)cc1	-8.0%
O=C(CCCc1nc(-c2ccc(Cl)cc2)no1)N1CCOCC1	5.9%
O=C(NCCCN1CCOCC1)c1ccco1	5.0%
Cc1cccc(OCCCn2ccnc2)c1	-13.1%
C[N+](C)(C)CCNC(=O)c1c(O)c2c([nH]c1=O)CCCC2	-18.7%
Cc1cccc2cc(C(c3nnnn3Cc3ccccc3)N3CCN(C)CC3)c(=O)[nH]c12 (stereo not drawn)	-17.7%
CCOC(=O)N1CCN(C(=O)Nc2ccc3oc(C)nc3c2)CC1	16.1%
CCS(=O)(=O)N1CCC(C(=O)OCC(=O)c2ccc(Br)cc2)CC1	-0.7%
CC(C)Cn1cnc2c(SCc3ccccn3)nc(N)nc21	0.8%[11.4 µM]
C=CCN1C(=O)C(O)(CC(=O)c2ccc(-n3cccc3)cc2)c2ccccc21 (stereo not drawn)	31.6µM*
Cc1cccc(C)c1NC(=O)Nc1cccs1	25.1µM*

# Next structures.
Structure,HSD17B inh
O=C(c1ccco1)N1CCC2(CC1)CCN(c1ccccn1)CC2,31.6µM*
Cc1cccc(C)c1OCC(O)Cn1ccnc1C (stereo not drawn),6.6%
COC(=O)c1cc2c([nH]c3ccccc32)c(C)n1,31.6µM*
COc1ccc(OC)c(CNC(=O)C2CCN(C(=O)N(C)C)CC2)c1,11.5%
CCCOc1ccc2oc(=O)c3c(c2c1)CCCN3C(=O)CN1CCCC(C(=O)OCC)C1 (stereo not drawn),?
NS(=O)(=O)c1ccc(S(=O)(=O)NCCc2ccccc2)cc1,-1.3%
COc1ccc(OC)c(N/C(=N\c2nc(C)cc(C)n2)NC(=O)c2ccco2)c1,-3.7%
O=C(C1CC1)N1CCc2cc(S(=O)(=O)N3CCOCC3)ccc21,-4.4%
Cc1cc2ncn(-c3ncnc4sc(C)c(C)c34)c2cc1C,-5.3%
Cc1ccc(CSc2nnc(-c3ccco3)n2N)cc1,6.4%
CC1=C(C(=O)OC(C)C)C(c2ccc(Br)s2)NC(=O)N1C (stereo not drawn),-9.1%
CCOC(=O)c1ccc2c(c1)nc(COc1ccccc1C#N)n2CC,-0.1%
C=C(C)COc1ccc(-c2[nH]ncc2Oc2cccc(OC)c2)c(O)c1,-14.2%
CC(C)(C)OC(=O)N1CCC(c2c(C(=O)O)cnn2-c2ccccc2)CC1,-17.7%
O=C(NCCCN1CCOCC1)c1ccc(CNS(=O)(=O)c2ccc(F)cc2)cc1,6.6%
COc1ccccc1CNC(=O)C1CC(=O)N(c2ccc(C)c(C)c2)C1 (stereo not drawn),2.2%
O=C(c1ccco1)N1CCCC(c2ccccc2)C1 (stereo not drawn),1.3%
CN1CCN([C@@H]2Cc3ccccc3Sc3ccc(Cl)cc32)CC1,-8.6%
Cc1cc(C)nc(Sc2c(C)nn(-c3ccccc3)c2C)n1,-1.6%
CCN1CCN(CCNC(=O)c2cn(C(C)c3ccccc3F)nn2)CC1 (stereo not drawn),6.4%
Cc1ccc(CNC(=O)c2ccc(NS(=O)(=O)c3c(C)noc3C)cc2)cc1,5.4%
COCCn1c(=O)[nH]c2cc(C(=O)N3CCN(Cc4ccc5c(c4)OCO5)CC3)ccc2c1=O,-4.7%
CN(C)S(=O)(=O)N1CCc2ccccc21,8.8%
O=C(Nc1ccc(CN2CCOCC2)cc1)c1cc2ccccc2o1,0.4%
COc1ccc(Nc2oc(COc3ccc(Cl)cc3)nc2C#N)cc1,-9.5%
CN(CCNC(=O)c1ccc(N2CCCC2=O)cc1)CCc1ccccc1,3.2%
CSC(=NCc1cccnc1)NS(=O)(=O)c1cccs1,-2.8%
COc1ccc(C)cc1NC(=O)CSc1nnc(-c2cc3cccc(OC)c3o2)n1N,?
CN(C(=O)c1ccccc1Cl)c1ccccc1,-3.0%
COc1ccc(S(=O)(=O)c2ccc(OC)c(OC)c2)cc1OC,8.7%
CCOC(=O)CCn1c(=O)c2c(nc(Br)n2Cc2ccccc2)n(C)c1=O,1.8%
CC(NC(=O)c1ccnc(C(C)(C)C)c1)c1ccccc1 (stereo not drawn),-0.1%
COc1cccc(C(c2nnnn2Cc2ccco2)N2CCN(c3cccc(C)c3C)CC2)c1OC (stereo not drawn),-2.8%
COCCCN(C)C1CCN(C(=O)Nc2ccc(F)cc2)CC1,4.0%
O=C(CCNS(=O)(=O)c1ccc(Cl)cc1)N1CCC2(O)CCCCC2C1 (stereo not drawn),5.9%
COC(=O)[C@@]1(Cc2ccccc2)[C@H]2c3cc(C(=O)N4CCCC4)n(CCc4ccccn4)c3C[C@H]2CN1C(=O)c1ccccc1,-1.5%

# Given with each value named: four of the compounds above.
COc1ccc(C)cc1NC(=O)CSc1nnc(-c2cc3cccc(OC)c3o2)n1N
  HSD17B inh = ?
COc1ccc(S(=O)(=O)c2ccc(OC)c(OC)c2)cc1OC
  HSD17B inh = 8.7%
COCCCN(C)C1CCN(C(=O)Nc2ccc(F)cc2)CC1
  HSD17B inh = 4.0%
CN(CCNC(=O)c1ccc(N2CCCC2=O)cc1)CCc1ccccc1
  HSD17B inh = 3.2%

# Next results:
Structure,HSD17B inh
O=C(CCCn1c(=S)[nH]c2ccccc2c1=O)NCc1ccco1,3.9%
Cn1c(C(=O)NCCCN2CCCCCC2)cc2c(=O)n(C)c3ccccc3c21,25.1µM*
Cn1ncc(C#N)c1/N=C/N1CCCCC1,-1.7%
C1CCc2nnnn2CC1,6.2%
CCOc1cc(C2c3c(n[nH]c3C)C(=O)N2c2ccc(Br)cc2)ccc1O (stereo not drawn),?
COc1ccc(S(=O)(=O)N2CCN(CC(=O)Nc3ccc(C)c(F)c3)CC2)cc1,-5.0%
Cc1ccc2c(c1)nnn2C1CCN(S(=O)(=O)c2ccc(C(=O)N3C(C)CCCC3C)cc2)CC1 (stereo not drawn),6.2%
Cc1nc2sccn2c1P(c1c(C)nc2sccn12)c1c(C)nc2sccn12,0.2%
Cc1ccc(O)c(NC(=O)c2cccc(S(=O)(=O)N3CCCCC3)c2)c1,-6.2%
COCCn1nnnc1C(c1ccccc1OC)N1CCN(c2ccccc2F)CC1 (stereo not drawn),-10.9%
O=C1COc2ccc(C(=O)CSc3nnc(Cc4cccs4)n3-c3ccccc3)cc2N1,-6.4%
CCC1CCCCN1C1Sc2ccc(C(=O)OC)cc2NC1=O (stereo not drawn),10.0%

# Part of the list above, reformatted:
Cn1ncc(C#N)c1/N=C/N1CCCCC1
  HSD17B inh: -1.7%

Cc1ccc(O)c(NC(=O)c2cccc(S(=O)(=O)N3CCCCC3)c2)c1
  HSD17B inh: -6.2%

# (list continues)
Structure,HSD17B inh
CCC(c1nnc(SCC(=O)N2CC3(C)CC2CC(C)(C)C3)o1)N(C)C (stereo not drawn),-19.6%
COc1ccc(S(=O)(=O)Cc2ccc(C(=O)NCc3ccco3)o2)cc1,4.8%
Cc1cc(NC(=O)CNC(=O)C2CCCCC2)no1,2.6%
Cc1ccc(SCC(=O)NCCN2C(=O)CSC2=O)c(C)c1,3.2%
COc1ccc(C2C/C(=N\O)C(C)(C)O2)cc1 (stereo not drawn),9.5%
Cc1ccc(Nc2nc(N)nc(CN3CCN(Cc4ccc5c(c4)OCO5)CC3)n2)cc1Cl,-11.7%
CC(C)(C)n1nc2c(c1NC(=O)c1ccc(Br)o1)CS(=O)C2 (stereo not drawn),6.1%
CC(C)NC(=O)c1ccccc1NC(=O)CCS(=O)(=O)Cc1ccccc1,6.2%
Nc1nc(NC(=O)c2cccnc2)nn1-c1ccccc1,6.3%
CS(=O)(=O)N1CCC2(CCN(Cc3ccncc3)CC2)CC1,1.6%
COc1ccc(OC)c(N2C(=O)CC(Cc3ccc(C)cc3)C2=O)c1 (stereo not drawn),-12.9%
Cc1cc(OCCSc2nnc(-c3cccs3)n2C)ccc1Cl,-3.0%
C=CCOC(=O)Nc1c(C(=O)OC)[nH]c2ccc(Cl)cc12,31.6µM*
CCOc1ccc2c(O)csc2c1,25.1µM*
CN(Cc1ccccc1)c1nc2c(c(=O)[nH]c(=O)n2C)n1Cc1ccccc1,-3.1%
COC(=O)CNC(=O)CCCCC(=O)NCC(=O)OC,-3.3%
Cc1cc2c(cc1C)-c1nnnn1C(C)(C)C2,5.1%
Cc1ccccc1-c1cncnc1Nc1ccccc1,-21.6%
Cc1ccc(OCc2ccc(C(=O)N3CCOCC3)cc2)cc1C,-11.1%
COc1cccc(-c2cc(C(=O)N3CCN(Cc4ccccc4)CC3)no2)c1,-11.5%
